Insulin prom inh: inhibitors of insulin promoter-driven GFP, primary screen, imaging, TRM-6 cells (human fetal islet line), eGFP reporter, cell count | reporter expression induced with tamoxifen | inhibition, % at 2 µM | actives 0.9% (n = 130,000);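 active means inhibition above the mean plus 3 SD, with well images judged a real hit on visual review, cut at about 60% in these data, passing the limit was not always enough; inconclusive means inhibition over the cutoff but images rejected on review; inactive means inhibition not above the cutoff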
PKD1 kinase inh: inhibitors of human PKD1 kinase, biochemical, fluorescence polarization. Serine/threonine-protein kinase D1 (Homo sapiens), Q15139. PKD1 kinase fluorescence polarization assay. inhibition, %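 (about 10 µM by stock and volumes)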. actives 0.056% (n = 200,000);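 active means inhibition of 50% or more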;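 further: controls were vehicle for no effect and a reference inhibitor for full effect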
Target sequence (Q15139 whole entry, looked up): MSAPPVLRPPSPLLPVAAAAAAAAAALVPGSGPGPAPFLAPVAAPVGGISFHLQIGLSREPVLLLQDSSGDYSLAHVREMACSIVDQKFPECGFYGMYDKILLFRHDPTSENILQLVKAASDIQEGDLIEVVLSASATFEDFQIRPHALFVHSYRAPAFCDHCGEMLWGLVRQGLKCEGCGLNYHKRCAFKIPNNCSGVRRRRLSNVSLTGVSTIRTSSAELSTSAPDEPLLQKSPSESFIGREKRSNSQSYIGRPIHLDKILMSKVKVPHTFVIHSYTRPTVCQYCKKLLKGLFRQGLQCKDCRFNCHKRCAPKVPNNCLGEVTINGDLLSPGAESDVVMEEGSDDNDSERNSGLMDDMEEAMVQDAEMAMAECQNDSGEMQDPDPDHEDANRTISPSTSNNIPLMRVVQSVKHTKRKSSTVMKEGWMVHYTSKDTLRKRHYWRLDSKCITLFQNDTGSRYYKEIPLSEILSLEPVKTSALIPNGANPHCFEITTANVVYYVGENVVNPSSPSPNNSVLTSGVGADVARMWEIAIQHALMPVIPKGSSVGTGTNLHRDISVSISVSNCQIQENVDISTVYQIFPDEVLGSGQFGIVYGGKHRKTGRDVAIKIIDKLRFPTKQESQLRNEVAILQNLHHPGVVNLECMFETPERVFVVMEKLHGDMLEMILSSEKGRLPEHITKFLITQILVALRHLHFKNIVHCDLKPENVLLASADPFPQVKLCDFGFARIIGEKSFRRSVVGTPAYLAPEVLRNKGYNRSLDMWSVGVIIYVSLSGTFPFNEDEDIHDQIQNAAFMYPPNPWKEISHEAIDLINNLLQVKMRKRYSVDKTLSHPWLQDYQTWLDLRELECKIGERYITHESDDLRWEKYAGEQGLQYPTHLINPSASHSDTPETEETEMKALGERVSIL
GALR2 ag: GALR2 receptor agonists, primary screen, cell-based; GALR2-expressing cells, agonist activation read-out; activation, %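 (tested at 5 µM)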; Galanin receptor type 2 (Homo sapiens), O43603; actives 0.48% (n = 140,000);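 active means above mean plus 3 SD of all compounds, about 5% in these data, not always enough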;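 further: 0% = vehicle buffer wells and 100% = reference agonist at full effect; tested in CHO reporter cells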
RGS16-Gao HTS: modulators of RGS16 binding to Galphao, primary screen, biochemical, human proteins, multiplexed bead flow cytometry. actives 0.38% (n = 220,000). binding response (% of control), % at 10 µM. bead-based flow cytometry RGS16-Galphao binding, fluorescence; actives lie on both sides;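 active means below 25% or above 175%, edge rows of some plates excepted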;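 further: Galphao activated by GDP with aluminum fluoride before binding; 100% = wells without compound and 0% = beads without RGS; some results beyond the cut were filed as inactive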
HSV augment: enhancers of HSV replication in host cells, fold increase, host cell viability; actives 0.005% (n = 220,000); HSV replication augmentation in cells; maximum fold increase; AID 1956, 2009;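 active means peak rise of 1.5-fold or more in the series; inconclusive means self-fluorescent or not available for retest; tested in PC3 cells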;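 further: first round at 10 µM; read as green reporter fluorescence; hits show the peak of a series up to 25 µM; 1 = signal of infected wells without compound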
Insulin prom inh cell count: second read-out of Insulin prom inh, no call of its own (marks repeat the call); normalized cell count, %; measured here: cell count, toxicity; reference of the scale not given here;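 cells exposed to compound for 48 h; stained nuclei by imaging scaled within each plate; lower means fewer cells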
HSV augment primary fold: recorded beside HSV augment, whose call it bears; fold increase; compound at 10 µM; measured here: primary screen fold increase 10 uM; tested in PC3 cells;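 GFP signal in the first replicate; 1 = infected wells without compound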
Numbers without * were called inactive; i = inactive; ? = inconclusive; / = not tested or not shown.

Molecule	Insulin prom inh	Insulin prom inh cell count	PKD1 kinase inh	GALR2 ag	RGS16-Gao HTS	HSV augment	HSV augment primary fold
CN(CCOc1ccc(-c2ccn(S(=O)(=O)c3ccc(Cl)cc3)n2)cc1)c1ccccn1	-14	112	3	-1.5	133	i	0.98
N#Cc1ccccc1Sc1ccccc1C(=O)OCC(=O)NC1CCS(=O)(=O)C1 (centres undefined)	/	/	-4	-0.9	108	i	1.1
O=C(Nc1ccncc1)c1ccccc1[N+](=O)[O-]	/	/	0	/	94	?	/
Cc1ccc(S(=O)(=O)NC(C)C(=O)Nc2cccc([N+](=O)[O-])c2)cc1 (centres undefined)	/	/	1	/	100	i	0.97
O=[N+]([O-])c1ccc(-c2ccc(C=Nc3cccc4ccccc34)o2)cc1	27	181	-8	-2.4	101	i	1
Cc1ccc(C(NC(=O)N2CCOCC2)=C(Cl)Cl)cc1F	/	/	0	-0.8	103	i	0.63
O=C1C2C3C=CC(c4ccccc4)(C2C(=O)N1c1cccc(Cl)c1)C1C(=O)N(c2cccc(Cl)c2)C(=O)C31 (centres undefined)	17	80	9	-0.7	151	i	1
CCc1nc2ccc(C)cc2c(C(=O)Oc2cccc3cccnc23)c1C	66	100	-10	-0.6	97	i	0.71
CCN(C(=O)c1cc2cc(OC)ccc2oc1=O)c1cccc(C)c1	/	/	-3	-1.6	100	i	1.1
Cc1ccc(S(=O)(=O)/N=C(\CN2CCOCC2)N2CCCC2)cc1	-29	58	-1	-2.4	102	i	0.82
Cc1ccc(CN2CCN(CC(=O)NCCCN3CCN(c4ccc(F)cc4)CC3)C2=O)cc1	-44	39	-7	-0.4	96	i	0.92
CC1(C)N=C(N)NC(Nc2ccc(Br)cc2)=N1	20	126	-6	-3.4	125	i	0.98
CC(=O)N1CCN(C(=S)c2ccc([N+](=O)[O-])cc2)CC1	0	117	0	-2.4	104	i	0.94
COC(=O)/C=C/C(=O)NCc1ccco1	/	/	-2	-2.9	102	i	1
NNC(=O)C1CC(O)CN1S(=O)(=O)c1ccc(Cl)cc1 (centres undefined)	-189	38	-2	/	107	i	0.9
O=C(COC(=O)Cc1ccccc1[N+](=O)[O-])NCc1ccccc1Cl	20	162	-13	-1.6	97	i	0.99
CC1(C)CC(=O)C(CCC(=O)c2ccccc2)C(C)(C)N1 (centres undefined)	35	103	-4	-2.6	100	i	0.88
CC(=O)n1cc([C@H]2C=C(C(=O)NCc3ccccc3)O[C@@H](OCc3ccc(CO)cc3)C2)c2ccccc21	/	/	-4	/	104	i	1.3
CCN(CC(=O)Nc1ccc(S(N)(=O)=O)cc1)S(=O)(=O)c1cc(C)ccc1OC	62	113	-4	-1.1	101	i	0.87
Cc1cc(C(=O)COC(=O)CC2Sc3ccccc3NC2=O)c(C)n1-c1ccc(Br)cc1 (centres undefined)	29	66	-2	-1.2	87	i	1.1
COc1ccc(CCNC(=O)COc2nncc3ccccc23)cc1	/	/	0	/	104	i	0.92
COc1ccccc1NC(=O)CSCC(=O)N1c2ccccc2CCc2ccccc21	/	/	16	0.5	110	i	0.81
O=C(Oc1ccc2c(c1)OCO2)C12CC3CC(CC(C3)C1)C2	/	/	-1	0.1	101	i	1
CC(=O)Nc1ccc(NC(=O)CSc2nnc(-c3ccco3)o2)cc1	-111	70	-5	/	104	i	1.1

Quoted at random: 6 records from the list
Molecule	Insulin prom inh	Insulin prom inh cell count	PKD1 kinase inh	GALR2 ag	RGS16-Gao HTS	HSV augment	HSV augment primary fold
Cc1cc(C(=O)COC(=O)CC2Sc3ccccc3NC2=O)c(C)n1-c1ccc(Br)cc1 (centres undefined)	29	66	-2	-1.2	87	i	1.1
CCN(CC(=O)Nc1ccc(S(N)(=O)=O)cc1)S(=O)(=O)c1cc(C)ccc1OC	62	113	-4	-1.1	101	i	0.87
CC(=O)Nc1ccc(NC(=O)CSc2nnc(-c3ccco3)o2)cc1	-111	70	-5	/	104	i	1.1
COc1ccccc1NC(=O)CSCC(=O)N1c2ccccc2CCc2ccccc21	/	/	16	0.5	110	i	0.81
COc1ccc(CCNC(=O)COc2nncc3ccccc23)cc1	/	/	0	/	104	i	0.92
CC(=O)n1cc([C@H]2C=C(C(=O)NCc3ccccc3)O[C@@H](OCc3ccc(CO)cc3)C2)c2ccccc21	/	/	-4	/	104	i	1.3

(cont.)
Molecule	Insulin prom inh	Insulin prom inh cell count	PKD1 kinase inh	GALR2 ag	RGS16-Gao HTS	HSV augment	HSV augment primary fold
COc1cc2c(cc1OC)CN(CCC(=O)c1ccc(Br)cc1)CC2	60	77	5	/	98	i	0.95
CCOCC(=O)Nc1nnc(C2CCCCC2)s1	45	143	1	-0.7	115	i	0.89
COc1ccc(Cl)cc1-n1c(N)c(C(N)=O)sc1=S	43	66	-10	-1.4	94	i	0.99
Cc1ccc(C(=O)N2CCN(c3ccccn3)CC2)cc1	/	/	8	/	99	i	0.95
O=C(COc1ncnc2ccccc12)NCCc1ccccc1	/	/	-1	/	100	i	0.87
COC(=O)C1=C(NC(=O)c2cccc(OC)c2)CCS1	-27	135	-16	-0.1	98	i	1.1
COCCCNC(=O)c1cc(C(=O)c2ccccc2Br)c[nH]1	45	104	-10	/	91	i	1.1
Brc1ccc(-c2nc(-c3ccccn3)no2)o1	31	122	6	0.0	99	i	1
COc1ccc2c(c1OC)C(=O)N1C2SC[C@H]1C(=O)NC1CC(C)(C)NC(C)(C)C1 (some centres undefined)	/	/	-5	-2.4	98	i	0.97
COc1ccccc1NCCC(=O)OCC(=O)NC1CCCC(C)C1C (centres undefined)	8	47	-6	-1.4	112	/	/
N#Cc1cc([N+](=O)[O-])cnc1N(CCO)CCO	-50	131	-4	-3.2	96	i	0.98
COc1ccc(Oc2c(C)oc3cc(OC(=O)N4CCOCC4)ccc3c2=O)cc1	19	87	-7	-0.8	96	i	1
COc1ccc(C(=O)Oc2ccc(/C=N/NC(=O)c3ccccc3OC)cc2[N+](=O)[O-])cc1	-13	70	-2	-0.3	104	i	1
C/C(=N\Nc1ccc(Cl)c(C(=O)O)c1)c1cc2ccccc2o1	/	/	4	/	103	i	0.98
COCCCNCCOCCOc1ccc(C)cc1[N+](=O)[O-]	-40	73	-3	-2.7	114	i	0.8
CC(Nc1nc(N2CCN(CCO)CC2)nc2ccccc12)c1ccccc1 (centres undefined)	/	/	-2	/	100	i	0.9
CC1CC(=O)C2=C(C1)Nc1ccccc1N=C2 (centres undefined)	30	84	4	-2.5	117	i	0.71
COc1ccc(NS(=O)(=O)c2cccc(C(=O)N/N=C(\C)c3ccncc3)c2)cc1	24	95	-7	0.4	115	i	1
C[N+]1(CC(=O)OCCCC2CCCCC2)CCCC1	/	/	-5	/	100	i	0.97
CCOC(=O)Cc1nnc2c(Nc3ccccc3F)nc3nonc3n12	-324	24	-7	0.3	94	i	0.99
Cc1ccc(C(=O)NCc2ccco2)cc1[N+](=O)[O-]	-48	57	2	-0.3	101	i	0.8
COc1ccc(CCNC(=O)Cn2c(=O)[nH]c3ccsc3c2=O)cc1OC	/	/	3	/	86	i	0.98
CCOc1ccc(-c2nc(CSCC(=O)N3CCN(C(=O)c4ccco4)CC3)c(C)o2)cc1	/	/	2	-1.4	96	i	1.4
Cn1c(=O)c2ncn(CC(=O)Nc3ccc(N4CCOCC4)cc3)c2n(C)c1=O	20	123	-1	0.2	101	i	1.1
O=[N+]([O-])c1cc2c(cc1/C=N/n1c(-c3ccccn3)n[nH]c1=S)OCO2	-26	71	4	0.1	-3.6*	i	0.92
C/C(=N\OCC(=O)Nc1ccccc1C(C)(C)C)c1ccc2c(c1)OCCO2	-3	88	2	0.0	91	i	1.1
Cn1cnnc1SCC(=O)Nc1ccc2nc(SCc3ccccc3)sc2c1	3	154	3	0.1	100	i	0.91
CC(C)n1c(CN2CCN(C)CC2)nc2c1c(=O)n(C)c(=O)n2C	0	56	3	2.3	/	/	/
CC1(C)Cc2nc3oc4c(NCCCN5CCOCC5)ncnc4c3cc2CO1	/	/	/	/	102	i	0.94
Cc1cc(C(C)(C)C)ccc1OCCCCN1CCCC1	-73	99	-5	-1.7	101	i	0.82
CC(C)(C)c1cc(C(=O)NNC(=O)c2ccc(Cl)cc2)no1	/	/	/	/	99	i	1.1
CCOC(=O)C1=C(O)/C(=C/c2ccc(CNC(=O)C(=O)Nc3ccc(C)cc3)o2)N=C1C	-19	159	0	-2.4	86	i	1.1
COc1ccc(-n2cc(CNCc3cccnc3)c(-c3cccc(F)c3)n2)cc1	/	/	-4	/	98	i	0.89
Cc1ccc(/C=N\NC(=O)/C(=C\Nc2nccc(C)n2)NC(=O)c2ccccc2)cc1	/	/	/	/	96	i	1.1
O=C(NCC1(c2ccccc2)CCCC1)c1ccc(Br)cc1	-114	98	5	-1.1	105	i	0.93
CCC(=O)OCC(=O)Nc1cc(C)c(C)cc1[N+](=O)[O-]	/	/	-1	-0.5	103	i	0.99
Cc1ccc(-c2nnn(CC(=O)N(c3cnc4ccccc4c3)C(C(=O)NC3CCCC3)c3ccncc3)n2)o1 (centres undefined)	/	/	5	/	102	i	0.88
Cc1ccc(S(=O)(=O)/C(C#N)=C/c2c(N3CC(C)OC(C)C3)nc3ccccn3c2=O)cc1 (centres undefined)	61	94	0	0.1	100	i	0.82
O=S(=O)(Nc1ncccn1)c1ccc(NC(=S)NCc2cccnc2)cc1	/	/	9	/	107	i	0.99
COc1ccc2oc3ccccc3c(=O)c2c1	/	/	/	/	95	i	0.99
O=C(c1cccnc1)C1CCCN(Cc2nc(Cc3ccccc3)no2)C1 (centres undefined)	/	/	-5	/	95	i	0.98
CCN1CCN(CC(O)COCCOc2ccc(Br)cc2)CC1 (centres undefined)	8	65	-5	0.1	84	i	0.94
N#CCCn1cc(/C=N/O)c(-c2ccccc2)n1	-21	87	11	-2.2	106	i	0.92
CCCCN(C(=O)Nc1ccc(OCC)cc1)C1CCN(C(C)=O)CC1	-8	46	-6	-0.6	101	i	0.88
COc1ccc(CCN2CC(C(=O)NCc3ccco3)CC2=O)cc1OC (centres undefined)	-24	93	6	-2.8	91	i	0.93
Cc1cccc(Nc2nc(N)c([N+](=O)[O-])c(N3CCCC(C)C3)n2)c1 (centres undefined)	/	/	33	1.9	100	i	0.75
Cc1nc(Nc2ccc(S(=O)(=O)N3CCCC3)cc2)c2nnn(Cc3ccccc3)c2n1	6	93	-3	-0.4	105	i	1.2
Cc1cc(NC(=O)c2cccc(COc3ccc(Br)cc3)c2)no1	/	/	-1	-3.2	116	i	0.79
Cc1ccc(S(=O)(=O)N=S(CCO)CCO)cc1	-14	58	-7	-0.1	104	i	1.1
O=C(CN1C(=O)CC(c2ccccc2)Sc2ccccc21)NCC1CCCO1 (centres undefined)	-64	94	-5	/	104	i	1
O=C1NC2(CCCC2)Oc2ccccc21	-48	122	4	/	99	i	1

Assay outcomes from PubChem.
